Screens (PubChem BioAssay)
2A StopGo = FMDV 2A StopGo reporter, luciferase signal | actives 1.2% (n = 410,000) | human cells with a luciferase reporter of 2A StopGo recoding; control for the full effect not named in the record | Potency, µM (top dose mostly 57.9 µM), inactives show at the highest dose signal change, negative = less light; active = well fitted falling curve with a large enough effect; inconclusive = small, poorly fitted or top-dose-only effect; inactive = no such curve, though single readings can be large or run the other way; tested in HEK293T cells; further: nearly all actives have a fitted effect of over 45% in size; luciferase light after 4 h
RE007 growth inh = less growth of the S. pombe RE007 Vpr strain. S. pombe RE007 Vpr strain, BacTiter-Glo ATP luminescence, 24 h; control for the full effect not named in the record. AID 651644. Potency, µM (top dose mostly 92.2 µM), without a hit: at the highest dose activity change, negative = less growth. actives 0.21% (n = 360,000); active = well fitted falling curve with a large enough effect; inconclusive = small, poorly fitted or top-dose-only effect; inactive = no such curve, though single readings can be large or run the other way;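 further: nearly all actives have a fitted effect of over 50% in size; the assay follows cell death caused by Vpr and the record does not say whether a fall means rescue or toxicity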
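Fission yeast strain RE007, carrying one chromosomally integrated HIV-1 vpr copy, was seeded at OD 0.01 in PMG+AL medium with 23 nL pinned compound. After 24 h at 30 °C and 99% humidity, viability was read by BacTiter-Glo luminescence.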
* hit, by the source's call; ? = inconclusive; [ ] = remark or other dose. On the % scale 0 is the no-effect control and ±100 the full control effect; potency means the concentration at half of the fitted maximal effect.

mol	2A StopGo	RE007 growth inh
COc1ccccc1-c1ccccc1C1=CC(=O)CC(C)(C)C1=O	-25.5%	3.9%
Cc1ccc(S(=O)(=O)N2CCN(C(=O)c3ccc(-n4cncn4)c([N+](=O)[O-])c3)CC2)c(C)c1	?	8.6%
COc1cc(CN2C[C@@H](CO)O[C@@H](n3cnc4c(NC5CCCC5)ncnc43)C2)cc(OC)c1OC	-16.1%	-8.5%
COc1ccccc1-c1ncn(Cc2cccc(-c3ccccc3)c2)c1CC(C)C	28.2µM*	-25.1%
O=C(NCC1CC1)c1csc(COCCO)n1	-12.3%	0.6%[18.4 µM]
O=C(NCc1ccccc1)C1Cc2c(-c3ccc(Cl)cc3)ccnc2O1 (stereo not drawn)	-25.6%	-12.0%
CCOc1cc(OCC)cc(C(=O)N2CCC[C@H]2C(=O)N2CCC[C@H]2C(=O)NCc2ccccn2)c1	-16.8%	-10.0%
Cc1ccc(CNC(=O)C2(C)CCN2C(=O)Cc2ccc(-c3ccccc3)cc2)cc1 (stereo not drawn)	?	2.2%[18.4 µM]
COc1ccc(/C=C(/NC(=O)c2ccco2)C(=O)NCc2ccco2)cc1	-0.5%	5.2%
COc1ccccc1-c1cccc([C@@H]2C[C@H]3[C@H](CON3C)CN2Cc2cc(Cl)cc(Cl)c2)c1	-23.4%	5.9%
O=C(Cc1cccc(NC(=O)C2CCCN(C(=O)C3CCCCC3)C2)c1)Nc1cccc(C(=O)N2CCOCC2)c1 (stereo not drawn)	-3.6%	4.7%
CCN1C[C@]2(COC)CC[C@H](O)[C@]34C1[C@](O)([C@@H](OC)[C@H]23)[C@@]1(O)C[C@H](OC)[C@H]2C[C@@H]4[C@@H]1[C@H]2OC	0.0%	-4.2%
CCCNC(=O)Nc1ccc2c(c1)OC[C@H](C)N(C(=O)C1CCCCC1)C[C@@H](C)[C@H](OC)CN(C)C2=O	-17.2%	-2.1%
CC(C)C[C@@H](CN1CCC[C@H]1CN1C(=O)C(=O)NC[C@@H]1Cc1ccccc1)N1C[C@H](Cc2ccccc2)N(CC2CCCCC2)C(=O)C1=O	-16.0%	-1.7%
COc1ccc(Cl)cc1-c1cc(C(=O)NCc2ccco2)[nH]n1	-7.5%	-25.0%
Oc1ccc(Cl)c(CN2CCN(c3ncc(Cc4ccccc4)cn3)CC2)c1	-18.6%	?
O=[N+]([O-])c1ccc(N/N=C/c2cccs2)nc1	5.7%	-11.4%
CCCNC(=O)N(C)C[C@@H]1Oc2cc(Br)ccc2S(=O)(=O)N([C@@H](C)CO)C[C@H]1C	1.5%	-0.4%
O=C1NC[C@H](Cc2ccccc2)N(CC2CCN(CCC3CCCC3)CC2)C1=O	0.9%	3.8%
CCOc1cc(OCC)cc(C(=O)N2CCC[C@H]2C(=O)N2CCC[C@H]2C(=O)NCc2ccncc2)c1	?	-11.7%
COC(=O)c1ccc(N2CCN(CC(=O)c3ccc(C)cc3)CC2)c([N+](=O)[O-])c1	-6.3%	0.0%
CCOC(=O)C[C@@H]1OC[C@H](C)N1S(=O)(=O)c1ccc(C)cc1	-9.3%	6.3%
Cc1cccc(NC(=O)CSc2nc3ccccc3c(=O)n2C)c1C	?	-1.1%
COc1cccc(C(c2nnnn2C(C)(C)C)N2CCN(C/C=C/c3ccccc3)CC2)c1OC (stereo not drawn)	-9.9%	3.8%
O=c1cc(CO)[nH]nc1CO	-10.9%	-11.3%
Cc1ccc2cc(NC(=O)C3(C)CCN3C(C)C)ccc2n1 (stereo not drawn)	-10.2%	-13.7%
CCOC(=O)[C@]12CCCC=C1N(Cc1ccc(Cl)cc1Cl)C(=O)[C@H](CC(=O)NCCCCc1ccccc1)C2	-19.8%	-4.3%
COc1cccc(C(C)(O)c2nc(-c3cccc(NC(C)=O)c3)cs2)c1 (stereo not drawn)	-18.9%	12.5%
CCCCn1nnnc1C(c1ccccc1)N1CCN(c2cccc(C)c2C)CC1 (stereo not drawn)	-23.1%	-0.5%
C[C@@H]1CCCCO[C@@H](CN(C)C(=O)c2ccncc2)[C@@H](C)CN([C@H](C)CO)C(=O)c2cc(NC(=O)Cc3ccccc3)ccc2O1	-24.8%	-12.8%

Compound profiles, from the list above. Screens in order: 2A StopGo, RE007 growth inh
Shown for CCCNC(=O)N(C)C[C@@H]1Oc2cc(Br)ccc2S(=O)(=O)N([C@@H](C)CO)C[C@H]1C → 1.5%, -0.4%
Shown for COc1ccccc1-c1ncn(Cc2cccc(-c3ccccc3)c2)c1CC(C)C → 28.2µM*, -25.1%

Following part.
mol	2A StopGo	RE007 growth inh
COc1ccc(C=O)c(-c2c(-c3ccccc3OC)sc3ccccc23)c1	-0.7%	-4.7%
COc1ccc(C(O)c2nc(-c3ccccc3C)cs2)cc1 (stereo not drawn)	-13.7%	12.5%
CC(C)(C)NC(=O)C(c1ccc(-c2ccccc2)cc1)n1c(=O)c(-c2cc3ccccc3[nH]2)nc2ccccc21 (stereo not drawn)	25.4%	-10.3%
CCCNC(=O)CSc1ccc(S(=O)(=O)N(C)C2CCCCC2)cn1	-22.2%	9.7%
CNc1nc(-c2cccc(C(=O)N(C)C)c2)cn2ccnc12	-7.3%	-24.1%
CC(C)C1C(=O)N(Cc2cn(CCC3OCCO3)nn2)CCS(=O)(=O)N1Cc1ccc(-c2ccc(Cl)cc2)cc1 (stereo not drawn)	?	19.0%
CC(C)(C)S(=O)(=O)N1C[C@H]2CC/C=C\C/C(c3ccccc3)=C\2[C@@H]1CCO	-0.5%	-20.2%
CCOC(=O)C[C@H]1c2ccc(C(F)(F)F)cc2S(=O)(=O)N1C1CCCC1	31.0%[activator]	4.7%
Nc1nonc1-n1nnc(C(=O)N/N=C/c2cccc(F)c2)c1CN1CCCCCC1	0.0%	-7.6%
Cc1ccccc1C(=O)NCC(=O)OCC(=O)NNC(=O)c1ccccc1F	0.0%	3.5%
CCN(CC)C(=O)C1=C(C)N(CCCN2CCCC2=O)C(=O)C(CC(=O)NCc2cccc3ccccc23)C1 (stereo not drawn)	-11.2%	0.9%
COc1ccc(C(O)c2cnc(C)n2Cc2ccccc2)cc1 (stereo not drawn)	0.0%	-7.7%
Cc1cccc(NC(=O)c2nc[nH]c2C(=O)NC[C@@H](C)O)c1	-12.7%	-5.4%
CC(=O)Nc1cc(-c2ccc(C(=O)N3CCOCC3)cc2)cn2c(-c3ccc(C(C)=O)cc3)cnc12	-23.1%	-17.5%
C=CCSc1nnc2c(n1)-c1cccc3cccc-2c13	38.0%[activator]	-17.2%
OC[C@H]1O[C@@H](c2nc(-c3ccc(C4OCCO4)cc3)no2)[C@H](O)[C@@H]1O	32.5%[activator]	5.0%
CCCc1nn2c(-c3ccccc3)nnc2o1	-3.2%	6.8%
O=C(Nc1ccc2c(c1)OCO2)C1Cc2c(-c3ccc(Cl)cc3)ccnc2O1 (stereo not drawn)	-5.4%	-7.5%
Cc1ccc(-c2cnc(C(O)c3ccc(Cl)cc3C)[nH]2)cc1 (stereo not drawn)	-1.4%	-4.2%
O=C(Nc1ccc2c(c1)OCCO2)c1[nH]c(C(F)(F)F)nc1-c1ccccc1	-18.8%	-13.0%
C#Cc1ccc([C@H]2C=C(C(=O)NCc3nc4ccccc4[nH]3)O[C@@H](OCC)[C@@H]2CCCO)cc1	-6.9%	3.5%
CN(c1ccccc1C(=O)Nc1ccc2ccccc2c1)S(C)(=O)=O	-14.0%	14.5%
CCCS(=O)(=O)NC(=O)C1(C)CCCN(C(=O)c2nc(C)oc2C)C1 (stereo not drawn)	-0.3%	-8.6%
COc1ccc(Cc2nc3ccc(C(=O)N4CCC(C(N)=O)CC4)cc3o2)cc1	-1.7%	1.0%
CCCNC(=O)c1cc(C2CCCCN2S(=O)(=O)c2ccc(C#N)cc2)on1 (stereo not drawn)	7.6%	13.9%
Cn1c(=O)c2cc(NC(=S)NC3CCCCC3)ccc2n1-c1ccccc1	29.0%	-9.4%
COc1ccc(S(=O)(=O)N2CCOCC2)cc1NC(=O)c1ccc(SC)cc1OC	-4.4%	-3.5%
Cc1ccc(F)c(S(=O)(=O)NC(=O)C2(C)CCN2C(=O)c2cccc3ccccc23)c1 (stereo not drawn)	-10.8%	20.0%
CC1(C(=O)NS(=O)(=O)c2ccccc2)CCN1C(=O)CC1CCCCC1 (stereo not drawn)	-9.5%	7.5%
CC(C)NC(=O)C1(C)CCN1Cc1ccc(-c2ccccc2)cc1 (stereo not drawn)	?	15.5%[18.4 µM]
C[C@H](CO)N1C[C@H](C)[C@@H](CN(C)C(=O)C2CCCCC2)OCc2cnnn2CCCC1=O	-7.5%	2.2%
COc1cccc(C(O)c2nc(-c3ccc(N(C)C)cc3)cs2)c1 (stereo not drawn)	-3.8%	-6.4%
CC12Nc3ccccc3C(=O)N1Cc1cnnn1-c1ccccc12 (stereo not drawn)	-19.1%	2.0%
CCN(C)C1CN(Cc2cn(Cc3ccc(Cl)cc3)nn2)S(=O)(=O)C1 (stereo not drawn)	-15.9%	-6.4%
Cc1cc(C)c(CN2CCN(C(=O)CC[C@H]3O[C@@H](n4ccc(=O)[nH]c4=O)[C@H](O)[C@@H]3O)CC2)c(C)c1	-2.2%	56.7%
CS(=O)(=O)c1ccc(C2=C(CNC(=O)c3ccncc3)[C@H]3CC[C@@H](C2)N3Cc2ccccc2)cc1	-4.0%	-7.8%
COc1ccc(C2=CC(=O)CC(c3ccc(F)cc3)C2)cn1 (stereo not drawn)	-26.0%	-8.2%
CC(C)NC(=O)C1(C)CN(S(C)(=O)=O)CC(=O)N1CCc1ccc(O)cc1 (stereo not drawn)	-11.4%	-3.9%
O=C1c2[nH]c3ccccc3c2CC1N1C(=O)c2ccccc2C1=O (stereo not drawn)	-19.7%	3.1%
CCN(CC)S(=O)(=O)c1cccc(NC(=O)COC(=O)c2[nH]c(C)c(C(C)=O)c2C)c1	11.2µM*	7.4%
CCCCOCCCNC(=O)C[C@@H]1C[C@@]2(C(=O)OC)CC(C)(C)CC=C2N(Cc2ccc3c(c2)OCO3)C1=O	-19.2%	-0.3%
Cc1nc(NC(=O)C(C)(C)C)sc1C(=O)Cn1cc(-c2ccc(C(C)(C)C)cc2)nn1	-11.2%	0.9%
O=C(NCc1cccnc1)c1ccc2sc([C@@H]3O[C@H](CO)[C@H](O)[C@H](O)[C@H]3O)nc2c1	-12.1%	7.0%[18.4 µM]
CC(O)(c1ccc(F)c(F)c1)c1nc(-c2cnc3ccccc3c2)cs1 (stereo not drawn)	?	7.3%
COC(=O)N1CCCCC1c1cc(C(=O)NCc2cccnc2)no1 (stereo not drawn)	-14.7%	0.6%
CC1CC(C)CN(C(=O)C(C)N2CCN(S(=O)(=O)c3ccc(C(F)(F)F)cc3)CC2)C1 (stereo not drawn)	-21.6%	15.2%
COc1ccc(CN2C(=O)C(CC(=O)NCCCCc3ccccc3)CC(C(=O)N(C(C)C)C(C)C)=C2C)cc1 (stereo not drawn)	-29.7%	21.2%
COc1ccc(NC(=S)Nc2ccc(S(=O)(=O)N3CCCCC3)cc2)cc1	38.1%[activator]	-9.8%
O=c1[nH]c(=S)[nH]c2c1C(c1ccc(F)cc1)OC(CCC(F)(F)F)C2 (stereo not drawn)	-21.3%	6.9%
CCCCn1nnnc1C(CCc1ccccc1)N1CCC2(CC1)C(=O)NCN2c1ccccc1 (stereo not drawn)	-6.6%	-5.9%
CCCCCNC(=O)C(c1ccncc1)n1c(=O)c(-c2ccco2)nc2ccccc21 (stereo not drawn)	-6.4%	-3.7%
O=C1NC[C@@H](CCCCN2C[C@H](Cc3ccc(O)cc3)N(CCc3ccccc3)C(=O)C2=O)N(CCc2ccc(O)cc2)C1=O	-13.9%	-2.1%
CSc1ccc(CN2CCC(C)(Oc3ccc(CC#N)cc3)C2)cc1 (stereo not drawn)	-22.4%	0.9%
CCc1nc2ccc(C(=O)N(C)CCCN(C)C)cn2c1N(C)CCCc1ccccc1	-16.7%	-21.2%[18.4 µM]
CCC[C@H]1CN(c2ccc(Br)cc2)C(=O)[C@@H]1CC(=O)Nc1ccc(OC)cc1	?	14.0%
COC(=O)[C@]12CCCCC=C1N(CCc1ccc(OC)c(OC)c1)C(=O)[C@H](CC(=O)N1CCN(C(=O)c3ccco3)CC1)C2	-1.3%	3.5%
O=C(Cn1cc(C(=O)C(=O)N2CCOCC2)c2ccccc21)Nc1cccc(C(F)(F)F)c1	-15.0%	15.7%
C[C@H]1CN([C@@H](C)CO)C(=O)CCCn2nncc2CO[C@@H]1CN(C)Cc1ccc(-c2ccccc2)cc1	?	-8.8%
CN(C(=O)c1ccc(NC(=O)Cc2ccc(NC(=O)C3CCN(C(=O)C4CCCCC4)CC3)cc2)cc1)C1CCCC1	-6.9%	2.6%
C[C@@H]1CN([C@@H](C)CO)C(=O)c2cc(NC(=O)c3ccncc3)ccc2O[C@@H](C)CCCCO[C@@H]1CN(C)C(=O)Cc1ccccc1	-21.7%	-6.0%
CCOC(=O)C1=CCN(S(=O)(=O)c2ccccc2Br)C1c1ccc(Br)cc1 (stereo not drawn)	?	7.6%
N=C1CCCC1C(=S)SCCC(N)=O (stereo not drawn)	-10.8%	-6.5%

A portion of the library (hit frequency here may not be typical).
